Screening results as filed in PubChem.
Ecoli rRNA inh: reduced GFP signal of wild-type E. coli, primary screen, bacterial rRNA inhibitor project, GFP/RFP fluorescence, OD600, single point | E. coli WT GFP vs humanized-ribosome RFP mutants, 24 h; active compounds read low; DMSO median 0, no signal -100 | GFP signal change (wild-type ribosome), % (no concentration beside the values) | actives 1.6% (n = 350,000) | AID 720706, 2013;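 active means significant combined selectivity score with lowered wild-type GFP, culture density cut under 30%, mutant RFP and density less affected; inactive means any of these conditions unmet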; further: one replicate is shown; some compounds called inactive have numbers as strong as hits
FGF22 binding: binders of human FGF22 protein, primary screen, FGF22 synaptogenesis inhibitor project, biophysical, thermal shift, single point; Fibroblast growth factor 22 (Homo sapiens), Q9HCT0; recombinant FGF22 thermal shift, SYPRO orange fluorescence; percent of sucrose octasulfate shift, DMSO zero; calls only at 9.99 µM; actives 1.5% (n = 340,000); AID 651658, 2012;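 active means melting point raised past a set limit in the mean and every replicate; three in four hits are not shown here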
Target sequence (Q9HCT0 whole entry, looked up): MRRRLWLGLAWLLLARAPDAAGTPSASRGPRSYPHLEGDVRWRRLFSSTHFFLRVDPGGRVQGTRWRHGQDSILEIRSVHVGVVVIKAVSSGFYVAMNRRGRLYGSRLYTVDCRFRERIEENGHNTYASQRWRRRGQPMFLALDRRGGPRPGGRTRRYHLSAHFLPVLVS
Ecoli rRNA inh OD600: recorded beside Ecoli rRNA inh, whose call it bears; OD600 change, %; measured here: OD600 growth;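 optical density of the mix in the first replicate; 0 = DMSO median and -100 = no signal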
Ecoli rRNA inh RFP: recorded beside Ecoli rRNA inh, whose call it bears; RFP signal change, %; measured here: RFP humanized mutant strains;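 first replicate; 0 = DMSO median and -100 = no signal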
* marks the source's active call; other numbers are inactive results.

For Cc1ccccc1-c1ccc(C2[C@@H]3CN(C(=O)Nc4ccc(F)cc4)C[C@H]2N3)cc1 (stereo partly drawn) the results were Ecoli rRNA inh -61.5, FGF22 binding inactive, Ecoli rRNA inh OD600 -76.1 and Ecoli rRNA inh RFP -18.8.
Screening Cc1noc(C)c1S(=O)(=O)Nc1ccc2c(c1)CC(=O)N([C@H](C)CO)C[C@H](C)[C@@H](CN(C)Cc1ccc(Cl)c(Cl)c1)O2 returned Ecoli rRNA inh -3.8, FGF22 binding inactive, Ecoli rRNA inh OD600 -11.8 and Ecoli rRNA inh RFP 8.0.
For Cc1ccccc1-c1cnc2c(c1)C(=O)N([C@H](C)CO)C[C@H](C)[C@@H](CN(C)C(=O)CN(C)C)O2 the results were Ecoli rRNA inh 6.3, FGF22 binding inactive, Ecoli rRNA inh OD600 13.6 and Ecoli rRNA inh RFP 0.1.
`CNC[C@H]1OCCCC[C@H](C)Oc2ccc(NS(=O)(=O)c3ccc(Cl)cc3)cc2C(=O)N([C@@H](C)CO)C[C@@H]1C` gave Ecoli rRNA inh 3.9, FGF22 binding inactive, Ecoli rRNA inh OD600 3.9 and Ecoli rRNA inh RFP 0.2.
`Cc1ccccc1S(=O)(=O)N1CCCc2nc(-c3ccc(F)cc3)ccc21` gave Ecoli rRNA inh -3.4, Ecoli rRNA inh OD600 -16.4 and Ecoli rRNA inh RFP 0.7.
For CCCN(C)C[C@@H]1Oc2cc(-c3cccc(OC)c3)ccc2S(=O)(=O)N([C@H](C)CO)C[C@@H]1C the results were Ecoli rRNA inh -1.3, FGF22 binding inactive, Ecoli rRNA inh OD600 -3.7 and Ecoli rRNA inh RFP 0.9.
Screening CO[C@H]1CN(C)C(=O)c2cc(NC(=O)c3ccc(F)cc3)ccc2OC[C@H](C)N(C(C)=O)C[C@H]1C returned Ecoli rRNA inh 1.9, FGF22 binding inactive, Ecoli rRNA inh OD600 2.7 and Ecoli rRNA inh RFP -2.5.
Screening Cc1ccc(-c2ccc(C3[C@H]4CNC[C@@H]3N4Cc3ccccc3F)cc2)cc1 (stereo partly drawn) returned Ecoli rRNA inh -1.8, FGF22 binding inactive, Ecoli rRNA inh OD600 -2.9 and Ecoli rRNA inh RFP 0.5.
For COc1ccc2c3c([nH]c2c1)[C@@H](CO)N(C(=O)c1ccncc1)CC31CCN(C(=O)CC2CC2)CC1 the results were Ecoli rRNA inh 1.7, FGF22 binding inactive, Ecoli rRNA inh OD600 0.0 and Ecoli rRNA inh RFP -4.1.
For CCCC(=O)N1CCC2(CC1)CN(C(=O)C1CCCCC1)[C@@H](CO)c1[nH]c3cc(OC)ccc3c12 the results were Ecoli rRNA inh -3.5, FGF22 binding inactive, Ecoli rRNA inh OD600 4.5 and Ecoli rRNA inh RFP 0.0.
COc1ccc2c3c([nH]c2c1)[C@H](CO)N(S(C)(=O)=O)CC31CCN(Cc2ccccc2)CC1 was read as Ecoli rRNA inh -0.3, FGF22 binding inactive, Ecoli rRNA inh OD600 2.8 and Ecoli rRNA inh RFP -0.2.
`CC(C)C#Cc1ccc2c(c1)O[C@@H](CN(C)Cc1ccncc1)[C@@H](C)CN([C@H](C)CO)S2(=O)=O` gave Ecoli rRNA inh -5.0, FGF22 binding inactive, Ecoli rRNA inh OD600 -28.5 and Ecoli rRNA inh RFP 2.5.
C[C@H](CO)N1C[C@H](C)[C@H](CN(C)S(=O)(=O)c2ccccc2)OCCCC[C@H](C)Oc2ccc(NC(=O)c3ccccc3)cc2C1=O was read as Ecoli rRNA inh -2.6, FGF22 binding inactive, Ecoli rRNA inh OD600 -0.3 and Ecoli rRNA inh RFP 0.2.
CCCNC(=O)N1CC2(C1)CN(Cc1ccccn1)[C@H](CO)c1c2c2ccc(OC)cc2n1C was read as Ecoli rRNA inh 0.9, FGF22 binding inactive, Ecoli rRNA inh OD600 5.3 and Ecoli rRNA inh RFP 1.0.
For O=S(=O)(c1ccccc1)N1[C@@H]2CNc3ccccc3[C@@H]2[C@@H]1CO the results were Ecoli rRNA inh -1.2, FGF22 binding inactive, Ecoli rRNA inh OD600 -8.1 and Ecoli rRNA inh RFP 0.1.
Screening Cc1noc(C)c1S(=O)(=O)Nc1ccc2c(c1)CC(=O)N([C@@H](C)CO)C[C@@H](C)[C@@H](CN(C)Cc1ccc(-c3ccccc3)cc1)O2 returned Ecoli rRNA inh -0.4, FGF22 binding inactive, Ecoli rRNA inh OD600 -6.8 and Ecoli rRNA inh RFP 2.1.
Screening CN(C)C(=O)c1ccc(-c2ccc([C@@H]3[C@@H](C#N)N(C(=O)C4CCC4)[C@H]3CO)cc2)cc1 returned Ecoli rRNA inh 0.8, FGF22 binding inactive, Ecoli rRNA inh OD600 2.6 and Ecoli rRNA inh RFP 0.4.
For COC(=O)c1ccc(-c2cccc(CN3CCN(c4ncc(Cc5ccccc5)cn4)CC3)c2)cc1 the results were Ecoli rRNA inh 4.9, FGF22 binding inactive, Ecoli rRNA inh OD600 8.3 and Ecoli rRNA inh RFP -0.1.
For CC(=O)NC[C@@H]1[C@@H](c2ccccc2)[C@H](CO)N1C(=O)Cc1ccncc1 the results were Ecoli rRNA inh 3.2, FGF22 binding inactive, Ecoli rRNA inh OD600 9.7 and Ecoli rRNA inh RFP -1.4.
For C[C@H](CO)N1C[C@H](C)[C@@H](CN(C)C(=O)Nc2cccc(Cl)c2Cl)OCc2ccccc2-c2ccccc2C1=O the results were Ecoli rRNA inh 0.1, FGF22 binding inactive, Ecoli rRNA inh OD600 1.3 and Ecoli rRNA inh RFP 1.4.

Overlap with the part before: 3 entries, then new ones.
For COC(=O)c1ccc(-c2cccc(CN3CCN(c4ncc(Cc5ccccc5)cn4)CC3)c2)cc1 the results were Ecoli rRNA inh 4.9, FGF22 binding inactive, Ecoli rRNA inh OD600 8.3 and Ecoli rRNA inh RFP -0.1.
For CC(=O)NC[C@@H]1[C@@H](c2ccccc2)[C@H](CO)N1C(=O)Cc1ccncc1 the results were Ecoli rRNA inh 3.2, FGF22 binding inactive, Ecoli rRNA inh OD600 9.7 and Ecoli rRNA inh RFP -1.4.
For C[C@H](CO)N1C[C@H](C)[C@@H](CN(C)C(=O)Nc2cccc(Cl)c2Cl)OCc2ccccc2-c2ccccc2C1=O the results were Ecoli rRNA inh 0.1, FGF22 binding inactive, Ecoli rRNA inh OD600 1.3 and Ecoli rRNA inh RFP 1.4.
Screening C[C@H](CO)N1C[C@H](C)[C@H](CN(C)S(=O)(=O)c2cccc(F)c2)Oc2ncc(Br)cc2C1=O returned Ecoli rRNA inh -3.0, FGF22 binding inactive, Ecoli rRNA inh OD600 -7.0 and Ecoli rRNA inh RFP -3.5.
`Cn1cnc(S(=O)(=O)N[C@@H]2C=C[C@@H](CC(=O)NCC3CC3)O[C@H]2CO)c1` gave Ecoli rRNA inh 4.3, FGF22 binding inactive, Ecoli rRNA inh OD600 4.5 and Ecoli rRNA inh RFP 0.9.
Screening C[C@@H]1CN([C@@H](C)CO)S(=O)(=O)c2ccc(-c3ccccc3)cc2O[C@@H]1CN(C)Cc1cccc(F)c1 returned Ecoli rRNA inh -1.9, FGF22 binding inactive, Ecoli rRNA inh OD600 -14.6 and Ecoli rRNA inh RFP 1.3.
COCC(=O)N1[C@H](CO)[C@@H](c2ccccc2-c2cccc(OC)c2)[C@@H]1C#N was read as Ecoli rRNA inh -0.1, FGF22 binding inactive, Ecoli rRNA inh OD600 -8.9 and Ecoli rRNA inh RFP -0.1.
For CCC(=O)Nc1ccc2c(c1)OC[C@@H](C)N(C(=O)c1cccnc1)C[C@H](C)[C@H](OC)CN(C)C2=O the results were Ecoli rRNA inh 3.5, FGF22 binding inactive, Ecoli rRNA inh OD600 -1.4 and Ecoli rRNA inh RFP -0.2.
`Cc1noc(C)c1NC(=O)Nc1ccc2c(c1)C(=O)N([C@H](C)CO)C[C@H](C)[C@H](CN(C)Cc1ccc3c(c1)OCO3)OCCCC[C@@H](C)O2` gave Ecoli rRNA inh 2.4, FGF22 binding inactive, Ecoli rRNA inh OD600 4.0 and Ecoli rRNA inh RFP 0.2.
CC(C)C#Cc1ccc([C@H]2[C@H]3CN(C(=O)c4ccc5c(c4)OCO5)CCCCN3[C@H]2CO)cc1 was read as Ecoli rRNA inh -34.2, FGF22 binding inactive, Ecoli rRNA inh OD600 -59.0 and Ecoli rRNA inh RFP 0.7.
CO[C@H](CN(C)Cc1cc(F)ccc1F)[C@@H](C)CN([C@H](C)CO)S(=O)(=O)c1ccc(C)cc1 was read as Ecoli rRNA inh 1.9, FGF22 binding inactive, Ecoli rRNA inh OD600 -4.2 and Ecoli rRNA inh RFP 5.9.
Screening CN(C)C(=O)c1ccc(-c2ccc3c(c2)[C@@H]2[C@@H](CCN2C(=O)C2CCC2)[C@@H](CO)N3C)cc1 returned Ecoli rRNA inh -7.0, FGF22 binding inactive, Ecoli rRNA inh OD600 -2.3 and Ecoli rRNA inh RFP 2.7.
For CCN1[C@@H]2c3ccc(-c4cccc(F)c4)c(=O)n3C[C@@H]2[C@@H](CO)[C@@H]1C(=O)N1CCCCC1 the results were Ecoli rRNA inh -1.0, FGF22 binding inactive, Ecoli rRNA inh OD600 0.3 and Ecoli rRNA inh RFP -1.0.
`COc1ccc(NC(=O)Nc2ccc3c(c2)C(=O)N([C@@H](C)CO)C[C@@H](C)[C@@H](CN(C)C(=O)NC(C)C)OCCCC[C@H](C)O3)cc1` gave Ecoli rRNA inh 2.6, FGF22 binding inactive, Ecoli rRNA inh OD600 -8.1 and Ecoli rRNA inh RFP -1.1.
Screening CCCC#Cc1cnc2c(c1)C(=O)N([C@H](C)CO)C[C@@H](C)[C@H](CN(C)C(=O)C1CC1)O2 returned Ecoli rRNA inh 0.4, FGF22 binding inactive, Ecoli rRNA inh OD600 6.8 and Ecoli rRNA inh RFP -4.1.
Screening C[C@@H]1CN([C@@H](C)CO)C(=O)c2cccc(NS(=O)(=O)c3ccccc3)c2O[C@H]1CN(C)Cc1ccc(Oc2ccccc2)cc1 returned Ecoli rRNA inh 1.9, FGF22 binding inactive, Ecoli rRNA inh OD600 -0.3 and Ecoli rRNA inh RFP 2.5.
`C[C@@H]1CN([C@H](C)CO)C(=O)c2cc(NC(=O)Cn3cnnn3)ccc2O[C@@H]1CN(C)C(=O)Nc1ccc(C(F)(F)F)cc1` gave Ecoli rRNA inh 3.6, FGF22 binding inactive, Ecoli rRNA inh OD600 9.9 and Ecoli rRNA inh RFP -0.5.
Screening O=C(C[C@H]1C[C@H]2c3cc(NC(=O)CC4CC4)ccc3O[C@H]2[C@@H](CO)O1)NCc1ccc(-c2ccccc2)cc1 returned Ecoli rRNA inh -1.0, FGF22 binding inactive, Ecoli rRNA inh OD600 5.3 and Ecoli rRNA inh RFP -0.9.
`C[C@@H]1CCCCO[C@H](CN(C)Cc2ccc3c(c2)OCO3)[C@H](C)CN([C@H](C)CO)C(=O)c2cc(NC(=O)Nc3ccc(C(F)(F)F)cc3)ccc2O1` gave Ecoli rRNA inh 1.5, FGF22 binding inactive, Ecoli rRNA inh OD600 -1.9 and Ecoli rRNA inh RFP -1.7.
`CCCNC(=O)N1[C@H](CO)[C@@H](c2ccccc2-c2ccc(C)cc2)[C@@H]1C#N` gave Ecoli rRNA inh 26.8, FGF22 binding inactive, Ecoli rRNA inh OD600 -27.0 and Ecoli rRNA inh RFP 14.8.
For C[C@@H]1CN([C@@H](C)CO)S(=O)(=O)c2ccc(/C=C/c3ccccc3)cc2O[C@H]1CN(C)C(=O)NC1CCCCC1 the results were Ecoli rRNA inh -5.2, FGF22 binding inactive, Ecoli rRNA inh OD600 0.0 and Ecoli rRNA inh RFP -2.3.
`COC(=O)C[C@@H]1CC[C@H]2[C@H](COc3ccc(NC(=O)C4CC4)cc3C(=O)N2C)O1` gave Ecoli rRNA inh -2.1, FGF22 binding inactive, Ecoli rRNA inh OD600 -0.4 and Ecoli rRNA inh RFP -2.0.
COc1ccccc1NC(=O)N1CCCCN2[C@H](C1)[C@H](c1ccc(-c3cccc(C#N)c3)cc1)[C@@H]2CO was read as Ecoli rRNA inh -0.8, FGF22 binding inactive, Ecoli rRNA inh OD600 1.7 and Ecoli rRNA inh RFP 13.2.
COc1ccc(CNC(=O)C[C@@H]2C=C[C@@H](NC(=O)c3ccc4c(c3)OCO4)[C@@H](CO)O2)cc1 was read as Ecoli rRNA inh 3.4, FGF22 binding inactive, Ecoli rRNA inh OD600 5.7 and Ecoli rRNA inh RFP -0.9.
`CCC(=O)N[C@H]1CC[C@@H](CCn2cc(C3CC3)nn2)O[C@H]1CO` gave Ecoli rRNA inh 0.6, FGF22 binding inactive, Ecoli rRNA inh OD600 5.7 and Ecoli rRNA inh RFP -0.6.
Screening C[C@H](CO)N1C[C@H](C)[C@@H](CN(C)C(=O)c2ccccc2)Oc2ncc(/C=C/c3ccccc3)cc2C1=O returned Ecoli rRNA inh -7.4, FGF22 binding inactive, Ecoli rRNA inh OD600 -30.9 and Ecoli rRNA inh RFP 24.1.
`CN(C)CC(=O)N1[C@@H]2c3ccc(-c4ccccc4)c(=O)n3C[C@@H]2[C@@H](CO)[C@@H]1C(=O)NC1CCC1` gave Ecoli rRNA inh -1.4, FGF22 binding inactive, Ecoli rRNA inh OD600 -5.9 and Ecoli rRNA inh RFP 2.9.

The list is partial, so the mix of outcomes need not match the whole.
